Source: PubChem (National Center for Advancing Translational Sciences (NCATS))
VACV mCherry inh: vaccinia inhibition (mCherry reporter); Potency, µM (titrated, usually from 36.5 µM), for inactives: at the highest dose activity change, negative = inhibition, hits mostly inhibitors; Vaccinia virus mCherry reporter infection, fluorescence; about a quarter of the inactives have no number; actives 0.63% (n = 310,000); AID 720579; active = well fitted inhibition curve with a large enough effect; inconclusive = small, poorly fitted or top-dose-only effect; inactive = no such curve, though single readings can be large or run the other way; tested in A549 cells; also: nearly all actives have a fitted effect of over 35% in size; inactives centre near -10
Vaccinia Venus: inhibitors of vaccinia virus (Venus reporter); actives 0.46% (n = 330,000); Potency, µM (doses to about 36.5 µM), inactives show at the highest dose activity change, negative = inhibition, most hits filed as inhibitors; AID 720580; Vaccinia virus Venus reporter expression, fluorescence; active means well fitted inhibition curve with a large enough effect; inconclusive means small, poorly fitted or top-dose-only effect; inactive means no such curve, though single readings can be large or run the other way; tested in A549 cells; also: nearly all actives have a fitted effect of over 30% in size; inactives centre near -10
* hit, by the source's call; [ ] = remark or other dose. % is scaled to controls: 0 for no effect and ±100 for the full control effect; potency is read from the fitted curve at half-maximal effect.

Screening CC1=C(C(=O)Nc2cccc(Cl)c2)C2(CCCCCC2)OC1=O returned VACV mCherry inh -9% and Vaccinia Venus -16%.
For CCc1ccc(-n2c(CSc3nnnn3-c3ccccc3)nc3ccccc3c2=O)cc1 the results were VACV mCherry inh -13% and Vaccinia Venus 0%.
COc1ccccc1NS(=O)(=O)c1cccc2cccnc12 was read as VACV mCherry inh inactive and Vaccinia Venus -1%.
Cc1ccc(CNC(=O)NCc2noc3ccc(C)cc23)cc1 was read as VACV mCherry inh -4% and Vaccinia Venus -8%.
`CC1(C(=O)NS(=O)(=O)c2cccc(F)c2)CCN1C(=O)Cc1cccc2ccccc12` (centres undefined) gave VACV mCherry inh -9% and Vaccinia Venus -10%.
CCOc1ccc(C2(C#N)CC[N+](C)(C)CC2)cc1 was read as Vaccinia Venus -10%.
Screening CCCN1C[C@H](CSC)C[C@@H]2c3cccc4[nH]cc(c34)C[C@H]21 returned VACV mCherry inh -18% and Vaccinia Venus -8%.
`CN(c1cccc(NC(=O)c2ccccc2N(C)S(=O)(=O)c2ccccc2)c1)S(C)(=O)=O` gave VACV mCherry inh inactive and Vaccinia Venus -6%.
Screening CCCCNC(=O)[C@@H]1CSC2c3ccccc3C(=O)N21 (some centres undefined) returned VACV mCherry inh inactive and Vaccinia Venus 4%.
O=C(NCC(c1ccccc1)c1ccccc1)c1nn(-c2ccccc2F)nc1CO was read as VACV mCherry inh -22% and Vaccinia Venus -21%.
`CC1(C(=O)O)CC(C)(C(=O)O)CC(C)(C(=O)O)C1` (centres undefined) gave Vaccinia Venus -3%.
Screening Cc1nnc(NC(=O)CN2CC(C)OC(C)C2)s1 (centres undefined) returned VACV mCherry inh inactive and Vaccinia Venus -4%.
Cc1cc(S(=O)(=O)c2ccc([N+](=O)[O-])cn2)ccc1Br was read as VACV mCherry inh -3% and Vaccinia Venus -21%.
CCCCOc1cccc(C2C(C(=O)c3cccs3)=C(O)C(=O)N2Cc2cccnc2)c1 (centres undefined) was read as VACV mCherry inh -1% and Vaccinia Venus -11%.
`COc1ccc(OC)c(NC(=O)CSC2=NCCS2)c1` gave Vaccinia Venus inconclusive.
For O=C(O)C(=O)/C(=C\c1cccc(Cl)c1)c1ccc2ccccc2n1 the results were VACV mCherry inh 3% and Vaccinia Venus 6%.
For O=c1oc2ccccc2cc1-c1ccc(O)cc1O the results were VACV mCherry inh -24% and Vaccinia Venus -14%.
COc1ccc(/[N+]([O-])=C/c2ccco2)cc1 was read as VACV mCherry inh -11% and Vaccinia Venus -14%.
`Nc1nc(CN2CCCCCC2)nc(Nc2ccc(F)cc2)n1` gave VACV mCherry inh -8% and Vaccinia Venus 0%.
CC(=O)N/C(=C\c1ccccc1)C(=O)OCCCOC(=O)/C(=C/c1ccccc1)NC(C)=O was read as VACV mCherry inh -12% and Vaccinia Venus -6%.
For COc1ccccc1-c1c(C)nn2c(N3CCN(c4ccccc4OC)CC3)cc(C)nc12 the results were VACV mCherry inh 9% and Vaccinia Venus -30%.
Screening CC1CCN(Cc2nc(-c3ccc(Cl)cc3)no2)CC1 returned VACV mCherry inh -15% and Vaccinia Venus -4%.
Screening COCCCNC(=O)CSc1nc2ccccc2c(=O)n1Cc1ccco1 returned VACV mCherry inh -12% and Vaccinia Venus 2%.
Screening CCCCN1C=C(C(=O)OC)C(c2ccccc2C(F)(F)F)C(C(=O)OC)=C1 returned VACV mCherry inh -4% and Vaccinia Venus -6%.
For COc1ccc(S(=O)(=O)n2nc(OC(C)=O)cc2N)cc1 the results were VACV mCherry inh inactive and Vaccinia Venus inconclusive.
COc1ccc(S(=O)(=O)N2CCCCC2)cc1NS(=O)(=O)c1cc(Cl)ccc1Cl was read as VACV mCherry inh -19% and Vaccinia Venus -2%.
Screening CC1(C)Cc2cccc(OCC(=O)N3CCN(c4cccc(C(F)(F)F)c4)CC3)c2O1 returned VACV mCherry inh inactive and Vaccinia Venus -14%.
Screening O=C(COc1ccccc1)N(Cc1cccnc1)c1nc2ccc(F)cc2s1 returned VACV mCherry inh inactive and Vaccinia Venus -6%.
Screening Cc1cc(C)n2nc(C(=O)NC(C)(C)C)nc2n1 returned VACV mCherry inh -9%[1.46 µM] and Vaccinia Venus -15%.
Screening CCc1ccc(O)c(C(=O)c2cnc3cc(-c4ccc(C)cc4)nn3c2)c1 returned VACV mCherry inh 4% and Vaccinia Venus 6%.

Molecules listed so far with two or more sulfur atoms, in the order listed:
`CN(c1cccc(NC(=O)c2ccccc2N(C)S(=O)(=O)c2ccccc2)c1)S(C)(=O)=O` gave VACV mCherry inh inactive and Vaccinia Venus -6%.
`COc1ccc(OC)c(NC(=O)CSC2=NCCS2)c1` gave Vaccinia Venus inconclusive.
COc1ccc(S(=O)(=O)N2CCCCC2)cc1NS(=O)(=O)c1cc(Cl)ccc1Cl was read as VACV mCherry inh -19% and Vaccinia Venus -2%.

Next part
`CC(C)S(=O)(=O)c1cnc(-c2cccnc2)nc1N` gave VACV mCherry inh 1% and Vaccinia Venus 7%.
COc1ccc(N2C(=O)c3ccccc3NC2c2ccc(NC(C)=O)cc2)c(OC)c1 (centres undefined) was read as VACV mCherry inh inactive and Vaccinia Venus -11%.
For Cc1ccc(CNC(=O)Nc2ccccc2)n1C the results were VACV mCherry inh inactive and Vaccinia Venus -9%.
For CCn1ccc2c(OCC(=O)Nc3ccccc3C(F)(F)F)cccc2c1=O the results were VACV mCherry inh inactive and Vaccinia Venus -27%.
Screening CSc1ccc(CN(C)C(C)C(=O)NCC2CCCCC2)cc1 (centres undefined) returned VACV mCherry inh -21% and Vaccinia Venus -7%.
Screening CCOC(=O)c1cc(Sc2ccccc2N)cc(C(=O)OCC)n1 returned VACV mCherry inh inactive and Vaccinia Venus -3%.
CC(=O)Nc1ccc(NC(=O)C(C)OC(=O)CCc2nc3ccccc3s2)cc1 (centres undefined) was read as VACV mCherry inh -1% and Vaccinia Venus -9%.
Screening C=CCSc1nc(N)c(C(=O)Nc2ccccc2C)cc1C(N)=O returned Vaccinia Venus -1%.
CCOc1ccc(OCC)c(Nc2nc3ccccc3n3nnnc23)c1 was read as VACV mCherry inh -6% and Vaccinia Venus -6%.
For COc1cccc(-c2cc3nc(NCCCN(C)C)n(C)c(=O)c3s2)c1 the results were VACV mCherry inh -15% and Vaccinia Venus -12%.
`O=C(COC(=O)C1CC2C=CC1C2)NCc1ccccc1Cl` (centres undefined) gave VACV mCherry inh -18% and Vaccinia Venus -18%.
For COCCn1c(SCC(=O)N2CCOCC2)nnc1-c1ccco1 the results were VACV mCherry inh 11% and Vaccinia Venus 10%.
Screening Cc1cccc(C)c1NC(=O)CN(C)C(=O)c1ccc(OCc2ccccc2)cc1 returned VACV mCherry inh inactive and Vaccinia Venus -17%.
O=C(c1coc(=O)c(Br)c1)N1CCOCC1 was read as Vaccinia Venus -11%.
Screening COc1ccc(OC)c(-c2csc(NC(=O)Cn3[nH]c(=O)c4ccccc4c3=O)n2)c1 returned VACV mCherry inh -3% and Vaccinia Venus -21%.
Screening CC(C)COC(=O)NCCCOC(=O)Nc1ccccc1 returned VACV mCherry inh -1% and Vaccinia Venus -16%.
CC(C)C[C@H](NC(=O)Nc1cccc(Cl)c1)C(=O)O was read as Vaccinia Venus -4%.
Screening COc1ccc(Oc2ccc(NC(=O)c3ccccc3C)cc2)cc1 returned VACV mCherry inh -29% and Vaccinia Venus -25%.
CCOc1ccc(Nc2nc(N3CCOCC3)nc(N3CCOCC3)n2)cc1 was read as VACV mCherry inh inactive and Vaccinia Venus -12%.
For CCC(C)(C(=O)NC1CCCCC1)N(Cc1cccs1)C(=O)c1ccccn1 (centres undefined) the results were VACV mCherry inh -8% and Vaccinia Venus 2%.
Screening CCCc1cnc(N2CCN(C(=O)c3ccc(OC)cc3)CC2)nc1 returned VACV mCherry inh -5% and Vaccinia Venus -12%.
COc1ccc(-c2cc(C(=O)OCC(=O)N(C)C)c3ccccc3n2)cc1 was read as VACV mCherry inh -21% and Vaccinia Venus inconclusive.
O=C1c2ccccc2NC(c2ccccc2O)N1Cc1ccco1 (centres undefined) was read as VACV mCherry inh -10% and Vaccinia Venus -16%.
For Cc1ccc(C)c(N(CC(=O)NCc2ccco2)C(=O)CCC(=O)Nc2nccs2)c1 the results were VACV mCherry inh inactive and Vaccinia Venus -8%.
Screening CN(C)S(=O)(=O)c1ccc(Cl)c(NC(=O)CSc2nc3c(cc2C#N)C(=O)CCC3)c1 returned VACV mCherry inh inactive and Vaccinia Venus -10%.
Screening CCOC(=O)c1cnc2ccc(Cl)cc2c1Nc1ccc(OCC)cc1 returned VACV mCherry inh -7% and Vaccinia Venus -9%.
O=C(Cn1cc2c(n1)CCCCC2)NCCN1CCOCC1 was read as VACV mCherry inh -2% and Vaccinia Venus -1%.
`Cc1ccc(NC(=O)CCS(=O)(=O)c2ccc(Br)cc2)c(C)c1` gave VACV mCherry inh -12% and Vaccinia Venus -5%.
For COC(=O)CN1C(=O)CN=C(c2ccccc2Cl)c2cc(Br)ccc21 the results were VACV mCherry inh -1% and Vaccinia Venus 13%.
`COc1ccccc1CNC(=O)CCCN1C(=O)CCn2nc(-c3cn(C)c4ccccc34)cc21` gave VACV mCherry inh -22% and Vaccinia Venus -2%.

Quoted at random: 2 entries already listed
COc1ccc(-c2cc(C(=O)OCC(=O)N(C)C)c3ccccc3n2)cc1 was read as VACV mCherry inh -21% and Vaccinia Venus inconclusive.
O=C1c2ccccc2NC(c2ccccc2O)N1Cc1ccco1 (centres undefined) was read as VACV mCherry inh -10% and Vaccinia Venus -16%.

Carrying on:
`C[C@H](CO)N1C[C@H](C)[C@@H](CN(C)S(=O)(=O)c2cn(C)cn2)Oc2ccc(NC(=O)C3CCCCC3)cc2C1=O` gave VACV mCherry inh inactive and Vaccinia Venus -5%.
Screening O=C1C=CC(O)(c2cc(=O)c3c(O)cc(O)cc3o2)C=C1 returned VACV mCherry inh 11µM* and Vaccinia Venus inconclusive.
For COc1ccccc1COC(=O)N/C=C/c1ccco1 the results were VACV mCherry inh 0% and Vaccinia Venus -5%.
`CC(C)N(Cc1cc2ccccc2[nH]c1=O)C(=O)C1CCCCC1` gave Vaccinia Venus -5%.
Screening O=C(O)CC1SC(=Nc2cccc(O)c2)NC1=O (centres undefined) returned VACV mCherry inh -7% and Vaccinia Venus 5%.
CC(C)(CNC(=O)COc1ccccc1Cc1ccccc1)N1CCOCC1 was read as VACV mCherry inh -5% and Vaccinia Venus -8%.
`O=C(CSc1ccccn1)Nc1ccc(Br)cn1` gave Vaccinia Venus -12%.
`COc1ccc(C2SCC(C(=O)NCc3ccc(F)cc3)N2C(C)=O)cc1` (centres undefined) gave VACV mCherry inh inactive and Vaccinia Venus -13%.
Screening CCOc1ccc(NC(=O)Cn2c(=O)n(-c3cccc(Cl)c3)c(=O)c3c2c2cc(C)ccc2n3C)cc1 returned VACV mCherry inh -3% and Vaccinia Venus -7%.
Screening CCOC(=O)c1ccc(NC(=O)c2nc[nH]c2C(=O)NCc2ccccc2)cc1 returned VACV mCherry inh -3% and Vaccinia Venus inconclusive.

Quoted from the entries so far (3 entries):
`COc1ccc(C2SCC(C(=O)NCc3ccc(F)cc3)N2C(C)=O)cc1` (centres undefined) gave VACV mCherry inh inactive and Vaccinia Venus -13%.
Screening CCOc1ccc(NC(=O)Cn2c(=O)n(-c3cccc(Cl)c3)c(=O)c3c2c2cc(C)ccc2n3C)cc1 returned VACV mCherry inh -3% and Vaccinia Venus -7%.
Screening CCOC(=O)c1ccc(NC(=O)c2nc[nH]c2C(=O)NCc2ccccc2)cc1 returned VACV mCherry inh -3% and Vaccinia Venus inconclusive.

(further entries)
`CCCOC1CCCN(C(=O)CCc2nnc(-c3ccc4c(c3)OCO4)o2)C1` (centres undefined) gave VACV mCherry inh -20% and Vaccinia Venus -23%.
O=C1CC[C@]2(O)C3Cc4ccc(O)c5c4C2(CCN3CC2CC2)C1O5 (some centres undefined) was read as VACV mCherry inh -16% and Vaccinia Venus -4%.
For COc1ccc(Cn2c(C3CC3)nc3ccc(NC(=O)c4cccnc4)cc3c2=O)cc1 the results were VACV mCherry inh inactive and Vaccinia Venus -21%.
O=C(N/N=C/c1cc(Br)c(Br)o1)c1ccc2c(c1)OCCO2 was read as VACV mCherry inh -20% and Vaccinia Venus -13%.
Cc1ccc(CNCCc2ccc(F)cc2)s1 was read as VACV mCherry inh -1% and Vaccinia Venus -9%.
Screening Cc1cc(N)n2nc(-c3ccccc3)cc2n1 returned VACV mCherry inh inconclusive and Vaccinia Venus -11%.
Cc1ccccc1OCC(O)Cn1c(=N)n(Cc2ccccc2)c2ccccc21 (centres undefined) was read as VACV mCherry inh 10µM* and Vaccinia Venus 11µM*.
For COC(=O)[C@H](C)NC(=O)NC(C)CCc1ccccc1 (some centres undefined) the results were VACV mCherry inh inactive and Vaccinia Venus 2%.
CC(CNC(=O)CCCn1c(=O)c2cccn2c2ccccc21)c1ccccc1 (centres undefined) was read as VACV mCherry inh -9% and Vaccinia Venus -9%.
CCOC(=O)C(Cc1ccccc1)C(=O)Nc1cccc(C)c1 (centres undefined) was read as VACV mCherry inh inactive and Vaccinia Venus -4%.
CCNC(=O)C1(C)CCCN(Cc2cccc3c(OC)cc(C(=O)OCC)cc23)C1 (centres undefined) was read as VACV mCherry inh 4% and Vaccinia Venus 1%.
For CCc1ccc(S(=O)(=O)c2nnn3c2nc(NCCNC(C)=O)c2cc(Cl)ccc23)cc1 the results were VACV mCherry inh -17% and Vaccinia Venus -13%.
For CCC(=O)N(C)C[C@H]1Oc2ncc(C#Cc3ccncc3)cc2C(=O)N([C@@H](C)CO)C[C@@H]1C the results were VACV mCherry inh inactive and Vaccinia Venus -8%.
Clc1ccc(-n2nnnc2-c2cnc3ccc(Cl)cc3c2-c2ccccc2)cc1 was read as VACV mCherry inh -5% and Vaccinia Venus -18%.
For O=C(Nc1nc(-c2ccco2)cs1)c1ccccc1 the results were Vaccinia Venus -12%.
